# T cruzi repl – T. cruzi replication inhibition; hit rate 1.4% among 300,000; AID 1885; inhibition, % (concentration not given with the values); T. cruzi beta-gal in NIH3T3, luminescence, 90 h;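 active means mean inhibition across valid replicates above about 55%, limit read from the data; inconclusive means mean below that limit but half or more replicates reach it; inactive means mean below it, under half of replicates reach it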;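 further: signal also drops with host cell toxicity which is not excluded here; 0% = plate median of DMSO wells and 100% = zero luminescence signal; higher percent means less beta-gal luminescence so fewer parasites; stock transfer was 50 nL into about 50 µL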
# Calb FLC – affects C. albicans growth with fluconazole; C. albicans CaCi-2 (fluconazole-resistant clinical isolate) + fluconazole, Alamar Blue growth, 48 h; growth inhibition, % (concentration not given with the values); hit rate 0.57% among 300,000; AID 1979;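 active means most replicates above 75%; inconclusive means exactly half above 75%; inactive means most below 75%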;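 further: all wells also contain fluconazole at 8 µg/ml as a sub-toxic cotreatment; 0% = median of DMSO wells and 100% = median of geldanamycin control wells; wells of about 8 µL received 7.5 nL stock; the first replicate is given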
# rRNA inh HTS – inhibits bacterial ribosomal RNA function over humanized ribosomes. E. coli WT GFP vs humanized-ribosome RFP mutants, fluorescence, 24 h; stronger effect = lower value; DMSO median 0, no signal -100. GFP signal change (wild-type ribosome), % (no concentration beside the values). hit rate 1.6% among 350,000;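 active means significant combined selectivity score with lowered wild-type GFP, culture density cut under 30%, mutant RFP and density less affected; inactive means any of these conditions unmet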; further: one replicate is shown; some compounds called inactive have numbers as strong as hits
# Bfl-1 A1 inh – inhibitors of the anti-apoptotic protein A1, read as caspase activation; caspase activation, % (test concentration not listed); AID 2462; MEF A1-2A-BIM cells, Caspase-Glo 3/7 luminescence, 3 h; percent of clofoctol response, vehicle zero; hit rate 0.066% among 330,000;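 active means over half of replicate activation scores above 10%, or exactly half above 10 with the replicate mean above 10; inconclusive means replicate mean below 10 yet half the replicates above 10; inactive means over half of replicates below 10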;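 further: wells of about 30 µL received 50 nL stock; many hits fall short of the cut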
# ALR H2O2 inh – human ALR oxidase inhibition via reduced H2O2 | P55789 | purified ALR, DTT oxidation, H2O2 HRP-luminol luminescence | inhibition, % (concentration not given with the values) | hit rate 3.8% among 290,000;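 active means mean and each replicate at 75% or more; inconclusive means only one of the two met; inactive means neither met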;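 further: stock transfer was 7.5 nL into about 7.5 µL; 0% = neutral wells and 100% = wells with inactivated enzyme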
# Target sequence (P55789 whole entry, looked up): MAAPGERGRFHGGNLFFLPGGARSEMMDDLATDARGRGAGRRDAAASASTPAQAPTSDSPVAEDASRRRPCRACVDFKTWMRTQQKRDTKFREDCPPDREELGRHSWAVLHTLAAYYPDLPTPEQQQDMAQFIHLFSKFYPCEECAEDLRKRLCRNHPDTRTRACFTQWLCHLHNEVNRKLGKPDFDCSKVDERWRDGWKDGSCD
# B2AR ag – agonists of human beta-2 adrenergic receptor inducing internalization; P07550; Am2.2-beta2AR cells, FAP receptor internalization, flow cytometry; reference of the scale not given here; response, % (test concentration not listed); hit rate 0.43% among 340,000;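 active means response above a set limit, near 3 SD of response in nonfluorescent compounds, cut at about 42% in these data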;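 further: stock transfer was 100 nL into about 11 µL; a reference agonist was the positive control; negative values mostly stem from fluorescent compounds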
# Target sequence (P07550 whole entry, looked up): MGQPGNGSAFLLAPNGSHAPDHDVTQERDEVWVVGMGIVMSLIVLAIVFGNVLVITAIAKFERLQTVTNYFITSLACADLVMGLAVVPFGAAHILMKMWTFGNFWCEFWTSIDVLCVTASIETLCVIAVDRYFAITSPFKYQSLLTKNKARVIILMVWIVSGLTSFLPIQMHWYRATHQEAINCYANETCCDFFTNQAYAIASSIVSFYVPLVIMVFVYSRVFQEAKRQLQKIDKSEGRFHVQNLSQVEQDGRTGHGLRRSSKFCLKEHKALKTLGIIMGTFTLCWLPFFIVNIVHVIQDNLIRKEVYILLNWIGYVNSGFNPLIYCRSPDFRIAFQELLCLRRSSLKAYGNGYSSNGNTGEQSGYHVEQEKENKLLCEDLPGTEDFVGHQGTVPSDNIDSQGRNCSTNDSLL
# LANA-H2A inh – blocks KSHV LANA binding to histone H2A/H2B; Q9QR71; cell-free LANA-H2A/H2B peptide, fluorescence polarization; inhibition, % (test concentration not listed); hit rate 0.6% among 320,000; AID 2629; in the data active means inhibition mostly above about 10%, no sharp cut-off; inactive means mostly below about 6.7%;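 further: stock transfer was 7.5 nL into about 10 µL; 0% = median of vehicle wells and 100% = median of positive control wells; one replicate is shown; the record names a cut of 25% in any replicate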
# Beta cell apopt – blocks beta cell apoptosis. INS-1E cytokine-induced death, ATP luminescence, 48 h; percent of positive-control rescue, neutral wells zero. protection from apoptosis, % (no concentration beside the values). hit rate 0.8% among 300,000. AID 435005;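 active means all replicates at 75% or more, or half of them and the mean; inconclusive means half reach 75% but not the mean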;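 further: 0% = cytokine-treated negative control wells and 100% = positive control rescue; higher means more ATP so stronger rescue from cytokine killing; wells of about 40 µL received 100 nL stock; the first replicate is given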
# rRNA inh HTS OD600 – further read-out of rRNA inh HTS, marked with its call; OD600 change, %; measured here: OD600 growth;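 optical density of the mix in the first replicate; 0 = DMSO median and -100 = no signal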
# rRNA inh HTS RFP – also measured in rRNA inh HTS; calls as there; RFP signal change, %; measured here: RFP humanized mutant strains;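 first replicate; 0 = DMSO median and -100 = no signal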
# An asterisk follows results filed as active; ? = inconclusive; / = not tested or not shown.
SMILES,T cruzi repl,Calb FLC,rRNA inh HTS,rRNA inh HTS OD600,rRNA inh HTS RFP,Bfl-1 A1 inh,ALR H2O2 inh,B2AR ag,LANA-H2A inh,Beta cell apopt
N/C(Cc1ccc(Cl)cc1Cl)=N\OC(=O)c1cccs1,1.6,-7.3,/,/,/,-0.1,1.3,2.1,2.5,0.3
S=C(NCCc1ccccc1)NC1CCC(NC(=S)NCCc2ccccc2)CC1 (centres undefined),-18.4,-39.7,14.4,4.4,0.0,1.1,2.1,-2.1,1.2,5.9
COc1ccccc1NC(=O)Cc1nnc(SCC(=O)NC2CCCCC2)n1C,-0.1,0.8,9.5,-0.3,1.5,0.1,-4.2,-0.5,-1.0,-2.6
O=C(NC1=NCCS1)c1ccccc1Br,9.2,-5.2,25.1,18.5,1.7,0.4,-0.7,4.0,-1.0,/
CCCCCCN(C(=O)CCCCCN1C(=O)NC(c2ccc(-c3ccccc3)cc2)C(C(=O)OCc2ccccc2)=C1C)C(C(=O)NCCCC)c1ccc(OCC(=O)OC)c(C(=O)OC)c1 (centres undefined),-0.4,-0.3,12.7,16.5,-2.0,0.8,-20.2,/,0.4,2.6
Cc1cc(Cl)ccc1OCC(=O)OCC(=O)N(CC(C)C)c1c(N)n(Cc2ccccc2)c(=O)[nH]c1=O,2.0,3.2,-0.3,2.2,-1.4,-1.5,-11.5,-4.9,-5.2,-3.6
CC1(c2nnc(-c3ccc(Cl)cc3)o2)CC(c2cccnc2)=NO1 (centres undefined),-12.1,-3.8,15.8,8.0,-1.8,-0.2,-7.3,-5.1,-1.8,-8.6
Cn1cnnc1SCC(=O)Nc1ccc(S(=O)(=O)N2CCCC2)cc1,-16.7,3.5,9.5,9.2,-6.6,-0.2,-5.3,0.4,-1.0,-1.3
CC(C)c1nnc(NC(=O)c2cccs2)s1,4.9,12.8,-0.1,-4.4,-11.7,-3.8,49.5,-6.2,-4.6,-0.5
O=S(=O)(Nc1ccc(O)c(Sc2nc3ccccc3s2)c1)c1cccc2ccccc12,-9.1,72.3,/,/,/,0.2,-4.7,8.8,-4.4,-8.4
COc1ccc(C)cc1S(=O)(=O)N1CCN(C/C=C/c2ccccc2)CC1,/,/,-32.8,-49.2,-9.5,-1.0,/,0.6,-0.3,-1.0
O=C(C1=C[C@H](c2ccc(C(F)(F)F)cc2)C[C@H](OCc2ccc(CO)cc2)O1)N1CCCCCCC1,14.1,7.8,/,/,/,-1.1,-4.3,-14.9,0.0,9.3
CCC(=O)c1cn(CC(=O)NCc2ccco2)c2ccccc12,0.0,-3.6,/,/,/,-0.5,-10.5,1.5,2.4,-9.5
CCCC(=O)Nc1ccc(C(=O)N2CCCC2)cc1,-3.5,23.2,/,/,/,-3.3,/,4.8,-0.8,-2.0
CC(C)(C)NC(=S)N/N=C\c1ccc(-c2ccc([N+](=O)[O-])cc2)o1,10.7,37.0,4.9,-5.1,-0.5,-1.1,-2.8,-240.8,-5.9,11.7
CC(C)CCn1c(SC(C)C(=O)NC2CC2)nc2ccccc2c1=O (centres undefined),8.9,-5.2,/,/,/,0.7,-4.7,-6.8,-3.1,1.5
COc1ccc(NC(=O)Cn2c(=O)n(CC3CCCO3)c(=O)c3ccccc32)c(OC)c1 (centres undefined),-2.3,-5.8,11.1,7.9,1.2,0.3,-8.5,-1.6,-3.1,-3.3
Cc1ccc(C2C(C(=O)c3ccco3)=C(O)C(=O)N2c2ncccn2)cc1 (centres undefined),-10.2,6.8,11.8,-12.4,6.2,0.7,13.9,-2.1,4.4,4.5
Cc1ccc(Sc2ncccc2C(=O)NCC(c2ccc(F)cc2)N2CCOCC2)c(C)c1 (centres undefined),2.4,5.2,-1.8,-6.9,-0.6,0.7,-0.9,46.7*,0.1,-0.5
Cc1ccc(S(=O)(=O)/N=C(/Nc2ccc([N+](=O)[O-])cc2)c2ccccc2)cc1,7.7,10.5,0.5,-0.6,-4.5,1.2,-0.4,4.9,-13.7,5.0
COc1cccc(-c2cc(=O)c3cc(NC(=O)c4ccc(Cl)cc4)ccc3[nH]2)c1,-12.3,14.9,6.2,13.6,3.9,1.2,5.0,-8.7,-2.0,-7.1
COc1ccc(C2=NNC(c3ccco3)=Nc3ccc(F)cc32)cc1,-8.6,-21.1,-2.3,2.8,-4.2,-0.1,-3.5,-1.7,-1.9,-1.7
COc1cccc(CNC(=O)c2ccccc2C(=O)NC(C)(C)C(=O)NCc2cccc(OC)c2)c1,-14.0,3.9,2.3,5.8,0.6,-1.1,-0.1,-8.3,0.1,-2.0
COc1ccc(NC(=O)NCCCN2CCCC2=O)c(OC)c1,-2.1,-3.0,/,/,/,0.6,-12.0,-4.0,3.5,-3.1
COC(=O)c1cc(C#N)c(SCc2ccccc2)nc1C,11.1,3.1,/,/,/,-0.4,-21.9,-4.3,-2.3,4.3
Cc1ccc2nc(N(CCCN(C)C)C(=O)c3ccc4c(c3)CCCC4)sc2c1,44.1,2.4,/,/,/,-0.4,-12.8,1.7,-4.2,-1.4
COc1cc(NC(=O)CCN2CCN(Cc3ccccc3)CC2)cc(OC)c1,7.3,-15.8,/,/,/,1.6,-4.3,5.0,5.9,7.3
O=C1Nc2cc(Cl)c(Cl)cc2N(O)N1c1ccccc1Cl,-1.3,10.7,7.0,8.5,2.7,0.4,-5.5,-3.1,-0.9,-6.6
CCCCOC(=O)Nc1ccc(N2CCOCC2)cc1,14.4,17.4,/,/,/,-0.7,-7.4,4.6,-2.2,-4.1
COc1ccc(OCC(=O)N2CCN(C(=O)c3cccc(F)c3)CC2)cc1,-2.6,-4.8,/,/,/,-0.1,/,1.1,-0.4,1.7
COc1ccc(C(=O)NNC(=O)c2ccccn2)cc1,-4.7,10.0,7.0,7.3,1.3,-7.5,28.6,-4.3,-2.0,0.2
COc1ccc(-c2csc(N(C)C(=O)c3cccs3)n2)cc1,-2.1,11.8,11.8,11.8,-0.9,0.3,5.4,-5.1,-0.3,-4.1
CC(NC(=O)c1c(O)c2ccccc2[nH]c1=O)c1ccccc1 (centres undefined),2.8,9.7,-6.2,-5.9,-0.5,0.0,-4.3,-2.1,0.8,-4.1
Cc1nnc(SCc2cccc3ccccc23)n(N)c1=O,7.2,15.5,-5.2,-9.3,-9.1,0.2,57.7,2.4,-1.2,-1.5
COc1cc(C(=O)Nc2ccc3nc(N4CCOCC4)sc3c2)cc(OC)c1OC,/,/,2.2,2.8,0.2,-0.9,-5.7,-1.3,37.4*,9.4
CN(C)c1ccc(NC(=O)c2ccncc2)c2ccccc12,-1.7,0.7,/,/,/,0.6,34.0,2.9,-2.2,0.7
Cc1cccc(Oc2ccccc2N)c1,-8.0,14.2,1.8,-2.5,-7.3,1.9,-0.4,5.2,-7.1,-4.6
CCOC(=O)N1CCN(C(=O)c2cccc(S(=O)(=O)Nc3ccccc3Cl)c2)CC1,/,/,1.6,-3.6,-0.9,1.1,/,1.6,3.0,1.1
c1cc2c(cc1-c1cnc3n1CCC3)OCCO2,6.2,-8.9,7.9,-3.8,-1.2,-0.8,-3.8,-5.2,3.6,-5.8
Cc1csc(=O)n1CCC(=O)OC(C)C(=O)Nc1ccc(N2CCOCC2)cc1 (centres undefined),/,/,/,/,/,0.6,18.0,2.3,-18.9,-3.4
CN(C)C(=O)COC(=O)c1ccccc1OCC(=O)Nc1ccc(SC(F)F)cc1,3.5,31.9,/,/,/,0.2,8.5,-7.7,0.4,-1.5
Cn1c(CNC(=O)c2ccco2)nnc1SCC(=O)Nc1cccc(F)c1,-13.6,-8.9,4.0,4.5,2.6,0.0,/,-13.5,5.9,4.0
Cc1cccnc1NC(=O)Nc1cccc(C(F)(F)F)c1,-33.1,-1.7,/,/,/,0.4,-14.2,-1.9,3.6,0.8
CCS(=O)(=O)N1CCN(c2ccccn2)CC1,2.9,9.9,/,/,/,0.8,-10.9,2.2,5.2,-3.2
COc1ccc(N2C(=O)C3CCCN3C2c2ccccc2F)cc1 (centres undefined),-20.1,-6.4,16.8,11.2,0.1,-0.4,-9.3,5.3,-3.5,0.6
Clc1nc(-c2ccccc2)ncc1Oc1ccccc1,-0.6,-1.1,-8.9,-14.3,-4.4,1.1,3.5,7.6,-0.9,-2.1
Cc1nnc(SCC(=O)Nc2cccc(C(F)(F)F)c2)n1Cc1ccco1,-1.2,7.2,/,/,/,-1.0,-16.3,0.7,2.1,-6.0
COc1ccc(NC(=O)c2ccc(COc3ccc(C)cc3)o2)cc1,-6.7,4.0,9.2,16.0,-3.6,-4.0,-1.4,5.6,-1.7,0.9
O=C1C2C3c4ccccc4C(c4ccccc43)C2C(=O)N1Cc1cccnc1 (centres undefined),-3.2,-10.1,/,/,/,0.4,-1.9,3.2,7.8,-4.6
CCn1cc(C(=O)N2CCN(c3ccc(F)cc3)CC2)c2cc(OC)c(OC)cc2c1=O,4.0,-0.7,-2.1,-2.7,-6.2,-1.6,2.4,-0.9,5.0,-3.4
COc1cc(OC)c(C(=O)OCC(=O)Nc2nnc(-c3ccccc3)o2)cc1OC,/,/,6.8,-0.9,-0.2,0.2,-1.9,1.3,-0.5,-1.7
C[C@@]12C(=O)NCC(=O)N1[C@@H]1c3cc(Br)ccc3OC[C@@H]1[C@@H]2c1ccccc1,/,/,0.5,7.2,-0.8,-0.2,-1.0,-0.8,1.1,-2.7
COc1ccc(C=Nc2cccc3c(=O)[nH][nH]c(=O)c23)c2ccccc12,-7.1,26.0,/,/,/,0.3,-2.0,12.4,0.6,2.7
CC(=O)NC12CC3CC(CC(CC(=O)O)(C3)C1)C2,-5.3,-6.4,/,/,/,1.4,-0.7,-6.0,-2.4,1.5
CCOC(=O)Cc1c(Sc2ccccc2)c2cc(C)ccc2n1C,6.0,4.2,/,/,/,-0.3,-8.0,-6.7,-4.4,4.7
CCn1nc(C)cc1-c1nnc(Sc2ncc([N+](=O)[O-])s2)n1C,61.4*,0.5,-3.0,-16.4,-1.0,-0.1,/,39.2,1.3,/
COc1ccc(C(=O)NNC(=O)CN2CCC(n3nnc4cc(C)ccc43)CC2)cc1,-18.2,-0.7,-3.9,-5.8,-0.7,0.6,-0.8,-1.6,-0.3,-2.2
N#CC1=C(N)NC(SCC(=O)c2ccc(Br)cc2)=C(C#N)C12CCCCC2,?,16.7,-47.5,-75.3,-23.5,-0.7,-1.0,9.4,-1.3,/
Cc1c(C(=O)N2CCN(c3ccc(F)cc3)CC2)sc2nc3n(c(=O)c12)CCC3,1.7,-2.9,4.2,-1.1,6.3,-0.3,?,0.3,-1.0,-2.4
CC1CN(c2cnn(C(C)C)c(=O)c2Cl)CC(C)O1 (centres undefined),-12.8,-10.0,8.7,7.3,0.0,0.7,/,3.9,-2.8,-8.6

# The list is partial; count on the stated rates, not on these rows.
